Assay outcomes (PubChem BioAssay)
gsp ag – agonists of gsp mutant (McCune-Albright syndrome). hit rate 0.13% among 340,000. gsp mutant cells, cAMP HTRF, 30 min; control for the full effect not named in the record. Potency, µM (series often up to 76.9 µM), without a hit: at the highest dose activation (cAMP increase), hits mostly activators; active = well fitted activation curve with a large enough effect; inconclusive = small, poorly fitted or top-dose-only effect, or another doubt; inactive = no such curve, though single readings can be large or run the other way; cell line not stated here;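 further: phosphodiesterase inhibitor Ro 20-1724 added with compounds to block cAMP breakdown; potency means the concentration at half of the fitted maximal effect; nearly all actives have a fitted effect of over 60% in size; about a fifth of the inactives were tested at one dose only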
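Cells in DMEM/10% FBS with G418 were pretreated with compounds in DMSO plus […] (300 uM stock) for 30 min at 37C. cAMP was measured by HTRF (cAMP-d2 plus anti-cAMP antibody-K) after 30 min at room temperature.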
Six1-Eya2 inh – blocks human Six1 binding to Eya2. Q15475+O00167. AlphaScreen GST-Six1/His-Eya2 binding, biochemical; active compounds read low; control for the full effect not named in the record. activity change, % (test concentration not listed). hit rate 0.56% among 360,000. AID 651725; in the data active = activity change below about -65%; inconclusive = about -30% to -65%; inactive = above about -30%; further: on the % scale 0 is the no-effect control and ±100 the full control effect
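Six1/Eya2 binding was read as AlphaScreen signal after compounds were pinned into GST-Six1 plus His-tagged Eya2 (5X stock 250/500 nM) in pH 8.0 Tris/NaCl/TCEP buffer, beads added, then incubated 1 h, 37 C, dark.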
D2 PAM – positive allosteric modulators of human D2 dopamine receptor; P14416; DiscoveRx D2 beta-arrestin cells, luminescence, 90 min; 100% = 57 uM dopamine signal; potentiation, % (concentration not given with the values); hit rate 0.23% among 360,000; AID 624464; active = potentiation of 50% or more; inconclusive = 30% to 50%; inactive = 30% or less;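 further: compound concentration not given in the record; tested on top of an EC20 dose of dopamine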
Target sequence (P14416 whole entry, looked up): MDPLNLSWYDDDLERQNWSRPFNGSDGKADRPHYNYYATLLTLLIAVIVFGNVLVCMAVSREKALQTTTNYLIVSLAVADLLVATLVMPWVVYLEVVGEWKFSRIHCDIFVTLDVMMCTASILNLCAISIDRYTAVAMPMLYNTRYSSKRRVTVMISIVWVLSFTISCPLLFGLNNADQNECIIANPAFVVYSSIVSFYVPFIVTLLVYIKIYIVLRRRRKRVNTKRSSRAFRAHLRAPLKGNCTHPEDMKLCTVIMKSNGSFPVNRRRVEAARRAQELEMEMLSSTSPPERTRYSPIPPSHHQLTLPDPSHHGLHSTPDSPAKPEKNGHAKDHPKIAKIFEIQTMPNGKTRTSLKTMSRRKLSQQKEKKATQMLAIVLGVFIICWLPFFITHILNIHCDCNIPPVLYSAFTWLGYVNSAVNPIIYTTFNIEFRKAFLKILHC
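PathHunter D2 cells, attached overnight at 37 deg C, received compound in DMSO plus dopamine at EC20 (50 nM final) for 90 min at 37 deg C. Beta-arrestin recruitment was read as luminescence after 1 h with detection reagent at ambient temperature.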
D2 agonist – human D2 receptor agonism in beta-arrestin assay; P14416; DiscoveRx PathHunter D2 beta-arrestin, luminescence, 90 min; 100% = 57 uM dopamine signal; activation, % (concentration not given with the values); hit rate 0.084% among 360,000; in the data active = activation above about 40%; inconclusive = about 15% to 40%; inactive = below about 15%; further: compound concentration not given in the record; the text of the record calls up to 30% inactive
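DiscoveRx PathHunter D2 beta-arrestin cells (2,100/well) attached overnight, then compound-stimulated 90 min at 37 C in HBSS/10 mM HEPES/0.1% Tween-20 buffer; beta-galactosidase complementation read by luminescence after 1 h at ambient temperature. Dopamine 57 uM final (EC100) as control.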
CtBP-E1A inh – CtBP/E1A binding inhibition | AlphaScreen GST-E1A/His-CtBP binding, 1536-well; active compounds read low; control for the full effect not named in the record | activity change, % (concentration not given with the values) | hit rate 0.49% among 340,000; in the data active means activity change below about -65%; inconclusive means about -30% to -65%; inactive means above about -30%; further: on the % scale 0 is the no-effect control and ±100 the full control effect
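Homogeneous bead-based format: GST-tagged E1A captured on glutathione donor beads, His-tagged CtBP on nickel acceptor beads; compounds precede bead addition by 2 h at 37 °C.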
gsp antagonist – antagonists of gsp mutant (McCune-Albright syndrome) | gsp-mutant cells, cAMP HTRF, 30 min; control for the full effect not named in the record | Potency, µM (top dose mostly 76.9 µM), without a hit: at the highest dose activity change, negative = inhibition, hits mostly inhibitors | hit rate 0.4% among 340,000; active = falling curve of any shape with a large fitted effect; inconclusive = falling curve, mostly with a smaller effect; inactive = flat or rising curve; cell line not stated here;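 further: intracellular cAMP measured with PDE inhibitor Ro 20-1724 present during compound exposure; potency means the concentration at half of the fitted maximal effect; on the % scale 0 is the no-effect control and ±100 the full control effect; nearly all actives have a fitted effect of over 65% in size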
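HTRF cAMP measurement after 30 min RT detection following 30 min, 37C compound treatment alongside […] (added as 300 uM solution) in G418-selected cells seeded at 2000/well and grown 16–24 h.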
Starred values were filed as active, the others as inactive; u = inconclusive; x = no result given; [ ] = dose if it differs, or a comment. Compounds were not picked by outcome; overall some 1.4% were active at least once.

The line under a structure holds: gsp ag, Six1-Eya2 inh, D2 PAM, D2 agonist, CtBP-E1A inh, gsp antagonist
#1 OCCn1cnc2c(SCc3ccccc3)ncnc21
    7%, -2, -3, -1.7, -3, -8%
#2 O=C(CCCCCNC(=O)c1ccccc1Br)N=Nc1c(O)[nH]c2ccccc12
    5%, u, -7, 5.9, x, -6%
#3 S=C(NCc1cccnc1)Nc1ccc(Cl)c(Cl)c1
    -2%, -2, -15, -0.5, -2, -21%
#4 CCC1CCCCN1C(=O)C1CC(c2cc(Cl)c(OC)cc2OC)=NO1 (stereo not given)
    -14%, -4, -17, -2.5, 3, -18%
#5 C[C@H]1COC(=O)[C@@H](CC(=O)OC(C)(C)C)C/C=C\C[C@@H](CC(=O)N[C@H](CO)Cc2ccccc2)C(=O)N1
    x, 4, -24, -2.3, 7, 4%
#6 Cc1cccc(C(=O)NNC(=O)c2c(O)c3ccccc3n(C)c2=O)c1
    -28%[15.4 µM], -1, -2, 1.8, 3, -23%
#7 Cc1[nH][nH]c(=O)c1C=NCc1cccs1
    -24%, 5, 1, -1.4, x, 0%
#8 COc1ccc(C2CC(=O)C(C3NCCc4ccccc43)=C(O)C2n2cncn2)cc1 (stereo not given)
    10%[15.4 µM], 1, -3, -3.6, 2, -1%
#9 CCCCN(C(=O)CNC(=O)c1ccco1)C(C(=O)NC1CCCCC1)c1ccc(OC)cc1OC (stereo not given)
    2%, 1, -13, -6.6, 8, 16%
#10 C/C(=N/NC(=O)c1ccccn1)c1ccc(O)cc1
    1%, -11, 3, -1.0, 0, 3%
#11 CCOC(=O)C1CCCCN1C(=O)c1cc2ccc(OC)cc2c2cc(OC)c(OC)cc12 (stereo not given)
    x, -10, 3, -0.2, -18, -3%
#12 Cc1cccc2c(=O)c(Br)c(C)n(Cc3ccccc3)c12
    0%[15.4 µM], 6, -3, -3.6, 6, 3%
#13 CC(=O)N1CCN=C1SCc1ccc(C(F)(F)F)cc1
    -35%[inhibitor], 2, -3, 0.8, x, 4%
#14 COc1ccc([C@H]2N[C@]3(CCCN(Cc4ccc(F)cc4)C3=O)[C@H]3C(=O)N(C)C(=O)[C@@H]23)cc1
    -31%[inhibitor], 3, 7, -7.2, 3, x
#15 CN(C)c1nc(C(=O)Nc2ccccc2)nc(N(C)C)n1
    2%, -2, -1, -2.0, -6, 6%
#16 O=C1C=C(c2ccc(F)nc2)C[C@@H](c2ccc3c(c2)OCO3)C1
    -7%, -4, -2, -2.6, -2, -6%
#17 CC(C)c1c(C(=O)N/N=C/c2ccncc2)nnn1-c1nonc1N
    -3%, 0, -3, -4.6, 1, -8%
#18 O=C(O)c1ccc(NNC(=S)Nc2cc(C(F)(F)F)ccc2Cl)cc1
    -17%, 11, -1, 0.0, -3, -11%
#19 CCC1Oc2ccccc2N(CC(=O)NCc2ccco2)C1=O (stereo not given)
    9%, -3, -3, -3.4, 8, 3%
#20 CCOC(=O)C1(Cc2cccc(F)c2)CCN(CC(O)CO)CC1 (stereo not given)
    19%[15.4 µM], 4, -4, 0.0, 8, 5%
#21 COc1ccccc1N1CCN(C(c2ccccn2)c2nnnn2C2CCCCC2)CC1 (stereo not given)
    -5%, -9, -7, -1.0, -13, -10%
#22 CN1CCCN(C(=O)c2cccc(Br)c2)CC1
    -3%[15.4 µM], 38, -11, -3.1, 2, 4%
#23 CCC(=O)C1CCCN(C(=O)c2ccc(OC)c(OC3CCN(C(C)=O)CC3)c2)C1 (stereo not given)
    -8%, 3, 9, -2.9, 5, 8%
#24 S=C(NCc1ccccn1)Nc1ccc(Cl)cc1
    2%, 0, 21, -3.3, -11, 1%
#25 CSc1ncc(Cl)c(C(=O)Nc2ccccc2C)n1
    2%[15.4 µM], 4, -3, -3.4, -19, 5%
#26 COc1ccc(CCN(C)c2ccc(S(=O)(=O)N3CCCC3)cc2[N+](=O)[O-])cc1OC
    -16%, -21, 2, -1.9, -14, -3%
#27 Cc1c(C(=O)NCc2ccco2)oc2c(Cl)cccc12
    -45%[inhibitor], -2, 7, -4.9, 0, -14%
#28 O=C(C1CCCO1)N(Cc1ccccc1)c1ccccc1 (stereo not given)
    29%, 3, -4, -1.5, 8, -9%
#29 CCOc1ccc(NS(=O)(=O)c2cccc(C(=O)NCC3(N(C)C)CCCCC3)c2)cc1
    -3%[15.4 µM], 0, -32, -1.0, 0, -9%
#30 CCOC(=O)C1CCCN(C(=O)c2cccc(C(F)(F)F)c2)CC1 (stereo not given)
    x, 0, -5, -1.8, 8, x
#31 NCC1C2CCC(O2)C1CO (stereo not given)
    -22%, 3, -1, -4.7, -1, x
#32 CSCCC(NC(=O)c1ccco1)C(=O)NCC1CCCCC1 (stereo not given)
    u, 8, -5, -3.7, -19, 3%
#33 Cc1c(/C=N\NC(=O)c2ccc([N+](=O)[O-])cc2)cnn1C
    3%, 3, -9, -2.5, 0, 8%
#34 C=CCn1c(N)c(C(=O)Nc2cccc(C)c2)c2nc3ccccc3nc21
    -34%, -16, -8, 0.4, -19, 0%
#35 CCCCCC(=O)Nc1ccc(C(=O)N/N=C/c2ccc([N+](=O)[O-])cc2)cc1
    5%[15.4 µM], 4, -10, -5.0, 4, 12%
#36 C/C=C/c1ccc(OCC(=O)OCc2csc(Nc3ccc(C)cc3)n2)c(OC)c1
    4%[15.4 µM], -18, -1, 3.6, -8, 1%
#37 c1ccc(-n2c(Sc3cnccn3)nnc2-c2cccs2)cc1
    2%, 0, -6, -2.0, -2, -1%
#38 O=C(NCCc1ccccc1)c1cccc2c1C(=O)N(C1CCCCC1)C2
    u, 0, -3, 0.6, 4, -5%
#39 O=C(O)c1ccccc1-n1c2ccccc2c2ccccc21
    -14%[15.4 µM], -9, -8, -2.9, 4, 1%
#40 COc1ccc(OC)c(NC(=O)C(=O)NCc2ccncc2)c1
    0%, 0, -9, 0.1, 0, -2%
#41 CCOc1ccc(NC(=O)C(C)NC(=O)c2ccccc2Cl)cc1S(=O)(=O)N1CCCC1 (stereo not given)
    -17%, -2, -4, -0.3, 9, -19%
#42 CCOc1cc(C#N)ccc1OCC(=O)N1CCc2ccccc2C1
    -11%, 3, 1, -0.8, 5, -9%
#43 Cc1nn(-c2ccccc2)c(C)c1C=O
    -6%, 4, -1, -0.5, 4, -1%
#44 COc1ccc(C(=O)O)cc1S(N)(=O)=O
    -3%[15.4 µM], 20, -8, -7.1, -11, 11%
#45 O=C(COC(=O)CNC(=O)C1CCCCC1)Nc1ccccc1
    -8%, -1, -5, -2.5, -5, -18%
#46 COc1cccc(-n2cc(CN(C)Cc3nc(Cc4ccccc4)no3)cn2)c1
    -9%, 6, -4, -1.8, -12, 5%
#47 Cc1ccc(S(=O)(=O)N(C)C[C@@H]2Oc3ccc(NS(C)(=O)=O)cc3CC(=O)N([C@H](C)CO)C[C@@H]2C)cc1
    x, 0, -7, -1.3, 2, 7%
#48 CC(NC(=O)COC(=O)CC(c1ccccc1)c1ccccc1)c1ccccc1 (stereo not given)
    u, 8, -1, -3.0, 7, -17%
#49 NC(=O)NCCN1CCN(c2ncc(C(F)(F)F)cc2Cl)CC1
    0%, -1, -18, -0.4, 12, 5%
#50 COc1ccc(C2C(C(=O)N3CCN(c4ccccn4)CC3)CCC(=O)N2c2ccc(OC)cc2)cc1 (stereo not given)
    u, 0, -7, -3.0, 1, u

The results go on.
The line under a structure holds: gsp ag, Six1-Eya2 inh, D2 PAM, D2 agonist, CtBP-E1A inh, gsp antagonist
#51 CCOc1ccc(C(C)=O)cc1CN1c2ccc(S(N)(=O)=O)cc2CC1C (stereo not given)
    -62%[inhibitor], -5, -4, 0.1, -15, -18%
#52 CCOC(=O)/C=c1\s/c(=C\c2ccc(C#N)cc2)c(=O)n1CC(=O)NCc1ccco1
    -6%[15.4 µM], 1, 2, 1.8, 2, 11%
#53 COc1ccc(/C=N/NC(=O)c2cc(C34CC5CC(CC(C5)C3)C4)[nH]n2)cc1O
    -14%, -3, -4, -1.0, -7, -15%
#54 CCOC(=O)N1CCN(C(=O)CSc2nnc(Cn3c(=O)sc4ccccc43)n2C)CC1
    -12%, 0, -5, -1.1, 7, 8%
#55 CC(=O)n1cc([C@H]2C=C(C(N)=O)O[C@@H](OCc3ccc(CO)cc3)C2)c2ccccc21
    x, -2, 17, u, 0, -4%
#56 CCCNC(=O)c1ccc2c(=O)c(O)c(-c3cccc(Br)c3)[nH]c2c1
    x, -3, -5, -1.2, u, 0%
#57 Oc1ccc(Br)cc1-c1cc(-c2ccc(Cl)cc2)n[nH]1
    32%, -5, -10, 5.6, -2, -14%
#58 CCOC(=O)c1cnc2ccccc2c1Nc1cccc(C(=O)O)c1
    57%[15.4 µM], 10, -2, -1.9, -19, x
#59 Cc1noc(C)c1CSCC(=O)NC1=NCCS1
    3%, -5, -12, -3.9, 3, -7%
#60 CCOC(=O)C1CCCN(C(=O)c2cc3cc(OC)c(OC)cc3[nH]2)C1 (stereo not given)
    14%[15.4 µM], 5, -5, -2.7, 6, -2%
#61 Cc1cc(NC(=O)c2ccc3nc(C)sc3c2)no1
    2%, -1, 3, -2.1, -4, 19%
#62 Cc1nc(NC(=O)c2ccc3c(c2)OCO3)ccc1Br
    27%, -2, -11, -0.5, 14, -10%
#63 COC(=O)Nc1ccc(S(=O)(=O)N(CCO)CCO)cc1
    -28%, 5, -3, -2.3, 5, 12%
#64 O=C(CCNC(=O)c1ccccc1Cl)Nc1cc(C(F)(F)F)ccc1Cl
    u, 5, -17, 0.4, -2, 5%
#65 O=C(c1cc2nc(-c3ccccc3)cc(C(F)(F)F)n2n1)N1CCN2CCCC2C1 (stereo not given)
    20%[15.4 µM], -4, -10, -2.3, 14, 2%
#66 CCCn1c2ccccc2c2cnn(CC(=O)N(CC)CC)c(=O)c21
    -1%, 1, -10, -4.8, -5, 4%
#67 O=C(NCCOc1ccccc1)C1CCC(=O)N(CCCN2CCCC2=O)C1 (stereo not given)
    -1%, 12, -11, 1.1, -1, 9%

Three compounds out of the list above, arranged by their value in Six1-Eya2 inh, smallest number first:
| item | Compound | gsp ag | Six1-Eya2 inh | D2 PAM | D2 agonist | CtBP-E1A inh |
| --- | --- | --- | --- | --- | --- | --- |
| 65 | O=C(c1cc2nc(-c3ccccc3)cc(C(F)(F)F)n2n1)N1CCN2CCCC2C1 (stereo not given) | 20%[15.4 µM] | -4 | -10 | -2.3 | 14 |
| 62 | Cc1nc(NC(=O)c2ccc3c(c2)OCO3)ccc1Br | 27% | -2 | -11 | -0.5 | 14 |
| 63 | COC(=O)Nc1ccc(S(=O)(=O)N(CCO)CCO)cc1 | -28% | 5 | -3 | -2.3 | 5 |
